StopGo reporter – FMDV 2A StopGo reporter, luciferase signal; human cells with a luciferase reporter of 2A StopGo recoding; control for the full effect not named in the record; Potency, µM (series often up to 57.9 µM), for inactives: at the top dose signal change, negative = less light; 410,000 tested, 1.2% active; active = well fitted falling curve with a large enough effect; inconclusive = small, poorly fitted or top-dose-only effect; inactive = no such curve, though single readings can be large or run the other way; tested in HEK293T cells; further: on the % scale 0 is the no-effect control and ±100 the full control effect; nearly all actives have a fitted effect of over 45% in size; luciferase light after 4 h
Cruzain inh noDet – cruzain (T. cruzi) inhibition without detergent. P25779. AID 1476. Potency, µM, without a hit: max response, negative = inhibition, hits mostly inhibitors. 200,000 tested, 2.3% active. purified cruzain, Z-FR-AMC fluorescence, no detergent; active means well fitted curve in the direction sought with a large enough effect; inconclusive means small, poorly fitted or top-dose-only effect, or another doubt; inactive means no such curve, though single readings can be large; an effect the other way counts as inactive or inconclusive;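 further: plate controls were enzyme without inhibitor for no effect and buffer without enzyme for full effect; nearly all actives have a fitted effect of over 40% in size; top concentration of the series not given in the record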
Target sequence (P25779 123-467 limits assumed): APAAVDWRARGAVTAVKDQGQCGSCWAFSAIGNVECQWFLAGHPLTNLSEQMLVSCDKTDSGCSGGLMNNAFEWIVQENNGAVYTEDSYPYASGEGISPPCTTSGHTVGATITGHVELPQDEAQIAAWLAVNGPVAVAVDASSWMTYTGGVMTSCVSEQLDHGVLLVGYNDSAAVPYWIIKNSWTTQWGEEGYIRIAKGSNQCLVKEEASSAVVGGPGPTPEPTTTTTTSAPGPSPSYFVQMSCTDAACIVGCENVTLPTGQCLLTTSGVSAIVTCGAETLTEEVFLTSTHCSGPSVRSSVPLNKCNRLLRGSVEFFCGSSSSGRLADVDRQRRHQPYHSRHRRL
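Detergent-free condition (0.00005% Triton X-100) in acetate buffer pH 5.5 with DTT. 1.5 nM enzyme and compound were pre-mixed 15 min, then 2 uM Z-FR-AMC substrate added; reaction progress from fluorescence change between first and third reads (60 s).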
Cruzain Triton – blocks cruzain activity in presence of Triton detergent; 200,000 tested, 0.43% active; Potency, µM, for inactives: max response, negative = inhibition, actives largely listed as inhibitors; purified cruzain, Z-FR-AMC fluorescence, 0.01% Triton; active means well fitted curve in the direction sought with a large enough effect; inconclusive means small, poorly fitted or top-dose-only effect, or another doubt; inactive means no such curve, though single readings can be large; an effect the other way counts as inactive or inconclusive;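 further: plate controls were neutral wells for no effect and buffer without enzyme for full effect; nearly all actives have a fitted effect of over 40% in size; top concentration of the series not given in the record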
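15 min RT preincubation of 1.5 nM cruzain with compound, then 2 uM Z-FR-AMC added; kinetic AMC fluorescence, 60 s delta. Triton X-100 0.01%, pH 5.5.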
RE007 growth inh – less growth of the S. pombe RE007 Vpr strain | S. pombe RE007 Vpr strain, BacTiter-Glo ATP luminescence, 24 h; control for the full effect not named in the record | Potency, µM (highest dose often 92.2 µM), for the others: at the highest dose activity change, negative = less growth | 360,000 tested, 0.21% active | AID 651644; active = well fitted falling curve with a large enough effect; inconclusive = small, poorly fitted or top-dose-only effect; inactive = no such curve, though single readings can be large or run the other way;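 further: on the % scale 0 is the no-effect control and ±100 the full control effect; nearly all actives have a fitted effect of over 50% in size; the assay follows cell death caused by Vpr and the record does not say whether a fall means rescue or toxicity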
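Fission yeast RE007 carrying one integrated HIV-1 vpr copy, seeded at OD 0.01 in PMG+AL medium with 23 nL pinned compound. Grown 24 h at 30 degrees; viability read by BacTiter-Glo luminescence after 5 min.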
LASV entry inh – blocks Lassa virus binding to or entry into cells; AID 540256; Potency, µM (series often up to 37.9 µM), without a hit: top-dose activity change, negative = inhibition, hits mostly inhibitors; 300,000 tested, 1.2% active; Lassa virus pseudotype entry inhibition, cell reporter; control for the full effect not named in the record; active means well fitted inhibition curve with a large enough effect; inconclusive means small, poorly fitted or top-dose-only effect, or effect the other way; inactive means flat fitted curve, though single readings scatter; tested in HEK293 cells; further: on the % scale 0 is the no-effect control and ±100 the full control effect; nearly all actives have a fitted effect of over 50% in size; luciferase read-out
SARS PLP yeast – inhibitors of SARS-CoV papain-like protease in yeast; Potency, µM (doses to about 32.9 µM), for the others: at the highest dose activity, positive = growth rescue; 330,000 tested, 0.19% active; S. cerevisiae expressing SARS-CoV PLpro, growth rescue; control for the full effect not named in the record; AID 485353; further: 0% is about no effect; nearly all actives have a fitted effect of over 55% in size; growth read by luminescence after 48 h
Marburg entry inh – Marburg virus entry inhibition | Potency, µM (highest dose often 37.8 µM), inactives show at the highest dose activity change, negative = inhibition, most hits filed as inhibitors | Marburg virus pseudotyped entry inhibition, cell reporter; control for the full effect not named in the record; about a third of the inactives were read at about 46 µM | 300,000 tested, 1.8% active; active = well fitted inhibition curve with a large enough effect; inconclusive = small, poorly fitted or top-dose-only effect, or effect the other way; inactive = flat fitted curve, though single readings scatter; tested in HEK293 cells; about a fifth of its hits are not listed in these tables; further: on the % scale 0 is the no-effect control and ±100 the full control effect; luciferase read-out
NS1 inh – blocks influenza NS1 protein function; 270,000 tested, 0.4% active; S. cerevisiae slowed by influenza A NS1, growth recovery by OD600; Potency, µM (doses to about 46.1 µM), for inactives: at the top dose activity, positive = more growth; AID 2326; further: actives are rising curves; nearly all actives have a fitted effect of over 50% in size
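Compounds were scored for reversing the slow growth caused by influenza A NS1 in S. cerevisiae, measured by optical density at 600 nm. Assay medium contained 2% galactose at pH 6.0; NS1-free yeast of the same strain were the positive control.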
* marks the source's active call; other numbers are inactive results; ? = inconclusive; · = no result given; & = joins results of further samples; [ ] = remark or other dose. Unless noted, the call rests on the fitted dose curve; in most records, active means well fitted rising curve with a large enough effect; inconclusive means small, poorly fitted or top-dose-only effect; inactive means no such curve, though single readings can be large or run the other way. Potency means the concentration at half of the fitted maximal effect. Random draw from the library; any-hit rate near 4.5%.

Second line of a record – LASV entry inh | StopGo reporter | Cruzain Triton | SARS PLP yeast | Marburg entry inh | NS1 inh | RE007 growth inh | Cruzain inh noDet
> COc1cc(-c2nc(=S)[nH][nH]2)cc(OC)c1OC
    ? | 7% | · | 1% | 9%[46.1 µM] | 9% | 8% | ·
> Nc1c(C(=O)NCc2ccc(F)cc2)c2nc3ccccc3nc2n1CCCN1CCOCC1
    -8% | ? | -8.6% | -4% | ? | 16% | 6% | ?
> Cc1onc(-c2ccccc2)c1C(=O)N/N=C/c1cc(Br)c(O)c(Br)c1
    9% | ? | · | -4% | -15% | 19% | 14% | ·
> Cc1nn(C)cc1CNC(=O)c1cc2n(n1)C(C(F)(F)F)CC(c1cccs1)N2 (configuration not stated)
    ? | · | 1.0% | 8% | -2% | 1% | -1% | -3%
> FC(F)(F)c1ccc2c(c1)n(Cc1ccccc1)c1[n+]2CCCCC1
    -13% | -21% | · | 0% | -3% | · | -3% | ·
> Cc1cnc(NC(=O)CN2C(=O)C3CC=CCC3C2=O)s1 (configuration not stated)
    22% | 0% | 1.9% | -9% | ? | -4% | 12% | -1%
> Cc1ccc(S(=O)(=O)N(C)Cc2ccc(C(=O)N/N=C3\CCCC(=O)C3)cc2)cc1
    2% | -12% | -3.3% | -1% | -1% | 26% | · | 6%
> CCOC(=O)C1CCN(C(=O)C2CC(=O)N(c3ccc4c(c3)OCCO4)C2)CC1 (configuration not stated)
    · | -12% | · | 0% | · | 1% | -9% | ·
> CC1CC=CCC12C(=O)NC(=S)NC2=O (configuration not stated)
    18% | -2% | · | · | 6% | · | 16% | ·
> COC(=O)CNc1nc(OC)nc(N(C)C)n1
    9% | -19% | 2.0% | -1% | 0%[46.1 µM] | -4% | -8% | 3%
> COc1ccc2c(c1)c(CCN1C(=O)c3ccccc3C1=O)cn2C(=O)c1ccco1
    -24% | · | 1.4% | 7% | 1% | 9% | -2% | -7%
> O=C(Nc1c(Br)cc2c(c1Br)Cc1ccccc1-2)C(Cl)Cl
    21%[46.1 µM] | -17% | · | · | 16% | · | 15% | ·
> CC1=C(C(=O)Nc2ccccc2)C(c2ccc(C)o2)N2C(=O)CSC2=N1 (configuration not stated)
    -17% | ? | 0.3% | -1% | 10% | 4% | 3% | -10%
> Cc1oc(-c2cccs2)nc1CN1CCN(Cc2ccc(F)c(F)c2)C(CCO)C1 (configuration not stated)
    ? | -14% | · | 0% | ? | -1% | -6% | ·
> OCC(CO)(CO)NCc1ccc(-c2ccccc2)cc1
    5% | 14% | 1.2% | 13% | 18% | 3% | -6% | -7%
> COc1cccc(CN2CCC(C(=O)N3CCC(C)CC3)CC2)c1
    · | -22% | · | 0% | · | -1% | 9% | ·
> C/C(=N\NC(=O)C1CCCN(S(=O)(=O)c2ccccc2)C1)c1ccccn1 (configuration not stated)
    ? | ? | 1.7% | 1% | ? | 0% | -11% | 18%
> CCCn1c2ccccc2c2nnc(SCc3[nH]c(=O)[nH]c3C(=O)CCCCC(=O)OCC)nc21
    -20% | 0% | 1.3% | 15% | ? | -1% | 24% | 9%
> O=C(NC1CCN(c2ncccn2)CC1)c1ccccc1F
    · | -24% | · | 1% | · | 2% | -3% | ·
> CCOC(=O)c1[nH]c2ccc(OC)cc2c1NC(=O)c1ccc2c(c1)OCO2
    -18% | 0% | -5.9% | 3% | 0% | -5% | -1% | -1%
> CN(C1=NC(=O)C(CC(=O)Nc2ccc(Br)cc2)S1)c1ccc(O)cc1 (configuration not stated)
    ? | · | -5.3% | 1% | 5% | -7% | 2% | ?
> Cc1ccc(/C=N/N2C(=O)c3ccccc3NC2c2ccc(C)cc2)cc1 (configuration not stated)
    -26% | 31%[activator] | -9.1% | -21% | ? | 4% | -5% | ?
> c1cc(OCCN2CC2)ccn1
    -24% | -1% | · | · | 7.1µM* | · | -6% | ·
> CCC(=O)Nc1ccc(NC(=O)c2ccc3c(c2)OCO3)cc1
    -5% | -6% | -2.5% | 2% | ? | 4% | 1% | -10%
> COc1ccc(CNC(=O)c2ccc3c(c2)N(Cc2ccc(C)cc2)CCS3)cc1
    ? | 28% | -8.2% | · | ? | · | · | ?
> Cc1ccc(S(=O)(=O)N(Cc2nc(-c3ccc(Cl)cc3)no2)C2CCCCC2)cc1
    3%[46.1 µM] | 11% | -3.0% | · | ? | · | · | -18%
> CCc1nnc(NC(=O)C2CC(=O)N(Cc3ccccc3)C2)s1 (configuration not stated)
    -8%[46.1 µM] | -12% | · | 1% | 12%[46.1 µM] | -1% | 20% | ·
> COc1ccc(OC)c(C(=O)c2ccc(C(=O)N3CCCCC3)cc2)c1
    0% | 21% | 1.8% | -3% | 10% | -13% | 13% | -2%
> CCCCOc1ccc(-c2nnn(CC(=O)c3c[nH]c4ccccc34)n2)cc1
    18% | -2% | 5.7% | 4% | 3% | 6% | 10% | 7.9µM*
> CCOC(=O)c1cccc(Nc2cc(C)nc(C)n2)c1
    5%[46.1 µM] | ? | -2.7% | · | 2%[46.1 µM] | · | · | -9%
> Cc1nn(C(=O)c2nn(C)cc2Cl)c(C)c1Br
    -3% | -13% | 1.3% | 5% | -2% | 7% | 21% | 4%
> COc1ccc(-c2noc(CCCC(=O)NCC3CCCO3)n2)cc1 (configuration not stated)
    -19% | -26% | · | 0% | -23%[46.1 µM] | 7% | -7% | ·
> CCc1cccc(NC(=O)C2CC2c2ccccc2)c1 (configuration not stated)
    -21% | 6% | · | -3% | 3% | -35% | 5% | ·
> CCC(C)(C)NC(=O)CN(C(=O)CNS(=O)(=O)c1ccccc1)c1ccccc1
    5% | -28% | -3.0% | 2% | · | -6% | 22% | 2%
> C=C(CC1CC(O)[C@]2(C)OC3CC4OC5C[C@]6(C)O[C@]7(C)CCC8OC9C[C@]%10(C)OC%11C(C)=CC(=O)OC%11CC%10OC9C[C@@H](C)C8OC7CC6O[C@]5(C)C/C=C\C4OC3CC2O1)C(=O)O (some centres not stated)
    · | -24% | · | -1% | · | 2% | 5% | ·
> CCOc1ccc(NC(=O)Nc2c[nH]c(=O)[nH]c2=O)cc1
    0%[46.1 µM] | 0% | -0.7% | · | 2%[46.1 µM] | · | · | ?
> O=C(NC1CCCCCCC1)c1cnccn1
    2% | 25% | 1.0% | -1% | ? | 0% | 25% | -27%
> CC(=O)Nc1ccc(NC(=O)C(C)c2cccc(C(=O)c3ccccc3)c2)cc1 (configuration not stated)
    -18% | -18% | -8.1% | -9% | 1% | 9% | 3% | 24%
> CCOC(=O)Cc1csc(NC(=S)NC(=O)c2ccccc2)n1
    0% | 0% | -7.7% | -8% | 7% | 2% | -9% | 10%
> Cc1ccccc1C(=O)Nc1nnc(CC(=O)N/N=C/c2ccncc2)s1
    -1% | -13% | · | 1% | -15%[14.2 µM] | 7% | -13% | ·

Sorted by molecular weight (ascending): part of the list above.
Second line of a record – LASV entry inh | StopGo reporter | Cruzain Triton | SARS PLP yeast | Marburg entry inh | NS1 inh | RE007 growth inh | Cruzain inh noDet
> CCOC(=O)c1cccc(Nc2cc(C)nc(C)n2)c1
    5%[46.1 µM] | ? | -2.7% | · | 2%[46.1 µM] | · | · | -9%
> CCCCOc1ccc(-c2nnn(CC(=O)c3c[nH]c4ccccc34)n2)cc1
    18% | -2% | 5.7% | 4% | 3% | 6% | 10% | 7.9µM*
> CCC(C)(C)NC(=O)CN(C(=O)CNS(=O)(=O)c1ccccc1)c1ccccc1
    5% | -28% | -3.0% | 2% | · | -6% | 22% | 2%

(next part)
Second line of a record – LASV entry inh | StopGo reporter | Cruzain Triton | SARS PLP yeast | Marburg entry inh | NS1 inh | RE007 growth inh | Cruzain inh noDet
> COc1ccc(N2Cc3cccc(C(=O)Nc4ccc(Cl)cc4)c3C2=O)cc1
    14%[46.1 µM] | 23% | -2.3% | · | -2%[46.1 µM] | · | · | -3%
> Cc1ccc(C)c(NC(=O)C2CCCN2C(=O)NC2CCCCC2)c1 (configuration not stated)
    · | -1% | · | 3% | · | 8% | -7% | ·
> CC(NC(=O)c1c(O)c2ccccc2n(C)c1=O)c1ccccc1 (configuration not stated)
    ? | 7% | · | 7% | ? | 16% | 12% | ·
> O=c1[nH]c(=O)n(C2CCCCC2)c(O)c1C1NCCc2ccccc21 (configuration not stated)
    -8% | -19% | 4.0% | 10% | 14% | ? | -1% | 5%
> Cc1oc(-c2ccc(Cl)cc2)nc1CS(=O)CC(=O)NCCCN(C)C1CCCCC1 (configuration not stated)
    10% | ? | -1.3% | · | ? | 4% | -20% | -3%
> CC(C)[C@H](NC(=O)[C@@H]1Cc2c([nH]c3ccccc23)C2c3ccccc3C(=O)N21)C(=O)N1CCC[C@@H]1C(=O)O (some centres not stated)
    · | -13% | · | -2% | · | 25% | 6% | ·
> CCN(CC)CCNC(=O)C12CC3CC(C)(CC(C)(C3)C1)C2
    ? | · | 4.3% | -8% | ? | 0% | -10% | 10%
> O=C(O)CN1C(=O)CCS(=O)c2ccccc21 (configuration not stated)
    · | -23% | 0.9% | 7% | 1% | 3% | -9% | -1%
> Cc1ccc(-c2nc(N)n(C(=O)Cc3ccccc3)n2)cc1
    15% | -10% | -3.3% | -2% | ? | -1% | 12% | 1%
> [O-]/[N+](=N\Nc1ccc(Cl)cc1)c1ccccc1
    18%[46.1 µM] | 32%[activator] | · | · | ? | · | -11% | ·
> CC(=O)c1ccc(NC(=O)C2=CC(c3ccc4c(c3)OCO4)=NS(=O)(=O)N2C)cc1
    ? | -21%&-8% | -2.0% | 6% | 6%&6%[46.1 µM] | ? | -4% | -1%

Rewritten bar-delimited: part of the list above.
mol | LASV entry inh | StopGo reporter | Cruzain Triton | SARS PLP yeast | Marburg entry inh | NS1 inh | RE007 growth inh | Cruzain inh noDet
O=c1[nH]c(=O)n(C2CCCCC2)c(O)c1C1NCCc2ccccc21 (configuration not stated) | -8% | -19% | 4.0% | 10% | 14% | ? | -1% | 5%
Cc1oc(-c2ccc(Cl)cc2)nc1CS(=O)CC(=O)NCCCN(C)C1CCCCC1 (configuration not stated) | 10% | ? | -1.3% | · | ? | 4% | -20% | -3%
